Screening results as filed in PubChem.
HPGD inh = blocks human HPGD enzyme activity | P15428 | purified HPGD, NADH fluorescence kinetic, PGE2 substrate | Potency, µM, for inactives: at the top dose activity change, negative = inhibition, hits mostly inhibitors | 4.3% of 150,000 active; active = well fitted inhibition curve with a large enough effect (not every such curve was filed as active); inconclusive = small, poorly fitted or top-dose-only effect, or another doubt; inactive = no such curve, though single readings can be large or run the other way;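 further: top concentration of the series not given in the record; plate controls included wells without enzyme; inactives centre near -10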
Target sequence (P15428 whole entry, looked up): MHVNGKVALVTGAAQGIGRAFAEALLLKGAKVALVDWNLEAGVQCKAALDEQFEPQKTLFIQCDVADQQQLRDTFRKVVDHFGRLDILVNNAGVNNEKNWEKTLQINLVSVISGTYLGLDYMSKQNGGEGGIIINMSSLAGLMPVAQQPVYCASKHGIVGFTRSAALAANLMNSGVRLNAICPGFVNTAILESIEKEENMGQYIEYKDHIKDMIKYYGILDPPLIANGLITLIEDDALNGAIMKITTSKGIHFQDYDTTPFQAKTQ
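20 nM HPGD preincubated 15 min at room temperature with compound in 50 mM Tris-HCl pH 8, 0.01% Tween 20. Started with 1 mM NAD+ and 30 uM prostaglandin E2; NADH fluorescence (360/450 nm) read 5 times over 30-s intervals, last minus first.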
* = called active by the depositor; ? = inconclusive; & = joins results of further samples. On the % scale 0 is the no-effect control and ±100 the full control effect; potency means the concentration at half of the fitted maximal effect. An excerpt; the hit share may differ from the screen's.

SMILES | HPGD inh
CCN(Cc1ccccc1)C(c1ccc(C)cc1)c1nnnn1C(C)(C)C (stereo unspecified) | -12%
Cc1cc(NCCCCO)n2c(nc3ccccc32)c1C#N | ?
Cc1nc(CC(=O)c2c(C)cc(O)cc2O)cs1 | -20%
O=S(=O)(c1cccc(-c2nnc(SC(F)F)n2-c2ccccc2)c1)N1CCCCC1 | -6%
O=C(/C=C/c1cccc(OCc2ccccc2)c1)c1cccnc1 | -28%
C=C1/C(=C\C=C2/CCC[C@]3(C)[C@@H]([C@H](C)CCCC(C)(C)O)CC[C@@H]23)C[C@@H](O)C[C@@H]1O | -4%
CCN(CC)CCN(Cc1cc2cc(C)cc(C)c2[nH]c1=O)C(=S)NCc1ccco1 | -7%
CC1N=C2c3ccccc3N=C(SCc3cc(=O)n4cc(Cl)ccc4n3)N2C1=O (stereo unspecified) | ?
COc1ccc(C2/C=C\CC(OCc3ccccc3)CC(=O)N2Cc2cccc(F)c2)cc1 (stereo unspecified) | -9%
Cc1occc1C(=O)NCCCCNC(=O)c1ccoc1C | -4%
Cc1ncc([N+](=O)[O-])n1CC(=O)NC1CCCC1 | -9%
CC(C)CCNC(=O)C(=O)NC1CCCC1 | -4%
CCOCCCNCc1cccc(OCc2ccc(F)cc2)c1 | -3%
O=C(Nc1nccs1)c1sc2ccccc2c1Cl | 13µM*
O=C(O)CCS(=O)(=O)Cc1cccc(Cl)c1 | -5%
Cn1c(Cn2nnc3ccccc32)nnc1SCC(=O)Nc1ccc2c(c1)OCO2 | -2%
Cc1cc(Cl)c(S(=O)(=O)N2CCCCCC2)cc1OCC(=O)NC1CCCCC1 | -17%
c1ccc(OCc2nc(-c3ccccc3)no2)cc1 | -4%
CC(C)OC(=O)CC(=O)CSc1nc2c(cc1C#N)CCCCC2 | ?
COc1ccc(-c2cc(C(F)(F)F)nc(N3CCN(C)CC3)n2)cc1 | -9%
CCCCOc1ccc(C2C3CN(C(=O)OCC)CC=C3C(C#N)=C(N)C2(C#N)C#N)cc1OC (stereo unspecified) | ?
COc1cc2c(cc1OC)CN(CC(=O)NC(=O)NCc1ccco1)CC2 | -12%
Cc1cc(C(=O)CN2CC(C)OC(C)C2)c(C)n1-c1ccccc1 (stereo unspecified) | -8%
CCCCOc1cccc(-c2cc(C(=O)NNC(=S)NCC)c3ccccc3n2)c1 | -15%
O=C(NCc1cccnc1)c1cccc(S(=O)(=O)N2CCOCC2)c1 | 0%
SMILES | HPGD inh
CC(C)(C)n1c(=O)[nH]c2c(c1=O)CCC2 | -7%
CCOc1cc(NC(=S)Nc2ccccc2OC)c(OCC)cc1NC(=O)c1ccccc1C | ?
COc1nc(-c2ccccc2)cc(-c2ccccc2)n1 | -10%
CCN(CC)CCNC(=O)Cn1c(-c2ccccn2)nc2ccccc21 | ?
CCCC(=O)N=C1SC2CS(=O)(=O)CC2N1c1ccc(C(C)=O)cc1 (stereo unspecified) | -2%
C=CCn1cc(C(=O)NCc2cccnc2)c(=O)c2cc(S(=O)(=O)N(CC)CC)ccc21 | -15%
CC(C)CN1CC2(CCN(C(=O)c3cnccn3)CC2)C1 | -7%
COc1ccc(C2=NOC(C(=O)Nc3c(C)n(C)n(-c4ccccc4)c3=O)C2)cc1 (stereo unspecified) | -11%
Cc1ccccc1Nc1sc(C(=O)Nc2cccc(Cl)c2)c(N)c1C(N)=O | -11%
COc1ccc(NC(=O)CCN2CCN(S(=O)(=O)c3ccc(Cl)cc3)CC2)cc1 | -2%
COc1cc(Cl)c(C)cc1NC(=O)CSc1ccc(C)cc1 | -13%
CCOc1ccc(C2N(c3ccc(OC)cc3)C(=O)C3CCCN32)cc1OC (stereo unspecified) | -7%
CC(C)c1ccc(OCC(O)CN2CCN(c3ccccc3)CC2)cc1 (stereo unspecified) | -7%
O=C(NC1CCCCCC1)c1cccc(COCC(F)(F)F)c1 | 0%
CC1(C)SC(=S)N(/N=C/c2ccccc2)C1N(O)C(=O)Nc1ccc([N+](=O)[O-])cc1 (stereo unspecified) | -21%
O=c1c2ccccc2nnn1CSc1nnc(C2COc3ccccc3O2)n1-c1ccccc1 (stereo unspecified) | -5%
CN1/C(=C\C(=O)Nc2ccc(Br)cc2)C(C)(C)c2ccccc21 | -6%
Cc1ccccc1NC(=O)Cn1c([N+](=O)[O-])cnc1C | -5%
CN1CCN(c2ncc3nc(CCc4ccccc4)c(=O)n(Cc4cccs4)c3n2)CC1 | ?
CCCOC(=O)CSc1nnc(-c2ccccc2Cl)o1 | -14%
O=C(c1ccccc1C(F)(F)F)N1CCN(S(=O)(=O)c2ccccc2)CC1 | -7%
c1ccc(CCc2nn3c(Cc4ccccc4)nnc3s2)cc1 | 11µM*
COC(=O)C(CC(C)C)NC(=O)/C=C/c1ccccc1Cl (stereo unspecified) | -9%
CC(C)(C)C(=O)/C=C/Nc1ccccc1O | -8%
C[N+]1(C)CCC[C@@H](OC(=O)C(O)(c2ccccc2)c2ccccc2)C1 | -4%

Not a retest: entries from further up.
SMILES | HPGD inh
CC(C)(C)C(=O)/C=C/Nc1ccccc1O | -8%
C[N+]1(C)CCC[C@@H](OC(=O)C(O)(c2ccccc2)c2ccccc2)C1 | -4%

Following part
SMILES | HPGD inh
Cc1ccc(NC(=O)C(C)c2cccc(C(=O)c3ccccc3)c2)cc1 (stereo unspecified) | -21%
COC(=O)c1cc(=O)nc2sc3cc(OC)ccc3n12 | -9%
COc1ccc(OC)c(C(=O)CSc2nnc(-c3ccc(OC)c(OC)c3)o2)c1 | -18%
CC1=C(C(=O)OC(C)C)C(c2ccc(C)o2)NC(=O)N1 (stereo unspecified) | -3%
Cc1ccc(-c2csc(N)n2)s1 | -11%
O=C(Oc1cccnc1)c1ccc(Cl)c(Cl)c1 | -2%
COc1ccc(NC(=O)c2oc3ccccc3c2NC(=O)c2ccco2)c(OC)c1 | ?
O=C1OC(/C=C/c2ccc(Cl)cc2Cl)=NC/1=C\c1cccs1 | -7%
CS(=O)(=O)Nc1ccc(C2=NN(S(C)(=O)=O)C(c3ccc4c(c3)OCO4)C2)cc1 (stereo unspecified) | ?
CCOC(=O)C(=O)NNc1ccc(C)cc1 | -3%
COc1ccc(N2CCN(C(CNC(=O)C(=O)NCC3CCCO3)c3ccco3)CC2)cc1 (stereo unspecified) | -7%
Cc1cc(C(=O)Nc2ccc3c(c2)OCO3)cs1 | -11%
CSCCC(NC(=O)c1ccccc1)C(=O)NC1CCCC1 (stereo unspecified) | -6%
COc1ccccc1S(=O)(=O)Cc1ccc(C(=O)N2CCN(c3cccc(Cl)c3)CC2)o1 | -5%
O=c1[nH]c(CCC2CCCC2)nc2ccccc12 | 2%
O=C(OCC#CCSc1nnc(-c2ccc([N+](=O)[O-])cc2)o1)c1cccs1 | -12%
Cc1ccc(-n2nc(C)c(C3C(C#N)=C(N)OC4=C3C(=O)CCC4)c2Cl)cc1 (stereo unspecified) | -30%
COCCN1Cc2cccc(C(=O)N3CCN(c4ccccc4)CC3)c2C1=O | -6%
COc1ccc(Cl)cc1C(=O)Nn1cnc2ccccc2c1=O | -8%
Cc1ccc2[nH]cc(C(=O)CN3CCN(c4ccccn4)CC3)c2c1 | -9%
COc1ccc(C2C(C#N)=C(C)NC3=C2C(=O)c2ccccc23)cc1 (stereo unspecified) | -20%
COc1ccc2nc(Sc3c([N+](=O)[O-])nc(C)n3Cc3ccccc3)[nH]c2c1 | 2%
COc1ccc(Nc2nc(C)cc(C)c2C#N)cc1OC | -4%
COc1ccc(-c2coc3cc(OC4OC(CO)C(O)C(O)C4O)cc(O)c3c2=O)cc1 (stereo unspecified) | -4%
Cc1ccc(Nc2nc(-c3c(C)n(C)n(-c4ccccc4)c3=O)c(C)s2)cc1 | -5%

Structural class: those above containing a CF3 group.
SMILES | HPGD inh
COc1ccc(-c2cc(C(F)(F)F)nc(N3CCN(C)CC3)n2)cc1 | -9%
O=C(NC1CCCCCC1)c1cccc(COCC(F)(F)F)c1 | 0%
O=C(c1ccccc1C(F)(F)F)N1CCN(S(=O)(=O)c2ccccc2)CC1 | -7%

More entries:
SMILES | HPGD inh
CCOC(=O)/C(C#N)=C1/CCCCCN1C | -7%
CCOC(=O)Oc1ccc2oc(C)c(C(=O)OCCOC)c2c1 | -9%
Cc1c(O)c2c(=O)n(-c3ccccc3)c(-c3ccccc3)cc2oc1=O | -7%
CNC(=O)c1cc2c(=O)n3cc(C)ccc3nc2n(Cc2ccco2)c1=N | -28%
COc1ccc(NC(=O)C2=C(C)C(=O)OC23CCC(C)CC3)c(OC)c1 (stereo unspecified) | -6%
COc1cc2[nH]c(=O)n(CCCCCC(=O)N3CCN(c4ccccc4)CC3)c(=O)c2cc1OC | -21%
CC/C(O)=N\S(=O)(=O)c1ccc(N=NN(C)C)cc1 | -12%
Cc1cc2n(n1)C(c1ccc(O)cc1)Nc1ccccc1-2 (stereo unspecified) | -15%
Cc1nc(Cl)c(C(=O)NC(=O)Nc2cccc(C(F)(F)F)c2)c(C)c1[N+](=O)[O-] | -14%
COc1ccc(CCNC(=O)CCC(=O)N2CCN(S(=O)(=O)c3ccc(Cl)cc3)CC2)cc1OC | 0%
CN(C)c1ccc(CNC(=O)C2(C)C=CCN2C(=O)c2ccccc2)cc1 (stereo unspecified) | -17%
Cc1ccc(CN(c2ccc(C(=O)Nc3ccc4c(c3)OCO4)cc2)S(C)(=O)=O)cc1 | -14%
CC12CC(c3ccccc3O1)C(C(=O)N1CCOCC1)C(=O)N2 (stereo unspecified) | -8%
O=P(O)(CN1CCCCCC1)CN1CCCCCC1 | -4%
O=C1c2ccccc2C(=O)N1C/C=C/CN1C(=O)c2ccccc2C1=O | -12%
CCCCOc1ccc(NC(=O)C2CC=CCC2C(=O)O)cc1 (stereo unspecified) | 2%
O=C(c1ccccc1)N1CCC(=O)N1c1ccccc1 | -15%
Cc1nn(-c2ccccc2)c(C)c1/C=N/NC(=O)c1ccccc1NS(=O)(=O)c1cccs1 | ?
CC(C)c1ccc(NC(=O)N2CCC(c3nc4ccccc4o3)CC2)cc1 | -10%
COC(=O)[C@@H](NC(=O)Nc1ccc(C(C)=O)cc1)C(C)C | -14%
Cc1ccccc1Cn1c(=O)n(Cc2ccco2)c(=O)c2ccccc21 | -11%
Cc1ccc2nc(N3CCN(S(=O)(=O)c4ccc(C)c(Cl)c4)CC3)c(C#N)cc2c1 | ?
S=c1[nH]ncn1-c1ccccn1 | -8%
O=C(NNc1ccccn1)c1ccc(Cl)nc1 | -23%
COc1ccc(Cl)c(Cn2c(NCCCN(C)C)nc3c2c(=O)n(C)c(=O)n3C)c1 | -22%

Molecules from the list above that have a cyano group, in the order listed:
SMILES | HPGD inh
Cc1cc(NCCCCO)n2c(nc3ccccc32)c1C#N | ?
CC(C)OC(=O)CC(=O)CSc1nc2c(cc1C#N)CCCCC2 | ?
CCCCOc1ccc(C2C3CN(C(=O)OCC)CC=C3C(C#N)=C(N)C2(C#N)C#N)cc1OC (stereo unspecified) | ?
Cc1ccc(-n2nc(C)c(C3C(C#N)=C(N)OC4=C3C(=O)CCC4)c2Cl)cc1 (stereo unspecified) | -30%
COc1ccc(C2C(C#N)=C(C)NC3=C2C(=O)c2ccccc23)cc1 (stereo unspecified) | -20%
COc1ccc(Nc2nc(C)cc(C)c2C#N)cc1OC | -4%
CCOC(=O)/C(C#N)=C1/CCCCCN1C | -7%
Cc1ccc2nc(N3CCN(S(=O)(=O)c4ccc(C)c(Cl)c4)CC3)c(C#N)cc2c1 | ?

(cont.)
SMILES | HPGD inh
CCOC(=O)c1c(C)[nH]c(C(=O)OCC(=O)N2CC(C)OC(C)C2)c1C (stereo unspecified) | -10%
O=C(COc1ccc2ccccc2c1CN1CCOCC1)N1CCc2ccccc21 | -2%
O=C(O)c1sccc1SCc1ccc(Cl)c(Cl)c1 | -11%
Cc1ccc(-c2nc3ccccc3o2)cc1NC(=S)NC(=O)/C=C/c1ccco1 | -6%
CCOC(=O)CSc1nnc(NC(=O)c2cccc(S(=O)(=O)N3CCCC3)c2)s1 | -2%
CCCNc1ncnc2sc(C)c(C)c12 | -7%
CC1(C)[C@@H]2CC[C@@]1(C)C(=O)C2 | -5%&-3%&-3%
CCOC(=O)c1c(NC(=S)Nc2ccccc2)sc2c1CCN(C)C2 | ?
O=C(c1cc2ccccc2o1)N1CCN(c2ccccc2Cl)CC1 | -24%
CCC(=O)Nc1ccc(N2CCN(S(C)(=O)=O)CC2)cc1 | -13%
CCN(CC)S(=O)(=O)c1ccc2c(c1)nc(SCC(N)=O)n2-c1ccc(OC)cc1 | 22µM*
O=C(C1=C(O)C(=O)N(c2ncccn2)C1c1ccc(Cl)cc1)c1ccco1 (stereo unspecified) | -13%
O=C(COc1ccccc1)N(Cc1ccccc1)c1nc(-c2ccccc2)cs1 | -10%
CC(=O)NC(CC(=O)c1ccc([N+](=O)[O-])cc1)C(Cl)(Cl)Cl (stereo unspecified) | -12%
COc1cc(CN2CC(=O)N(c3ccc(C)c(C)c3)C2=S)cc(OC)c1OC | -9%
CCCCCCCCn1cc(C(C)=O)c(=O)[nH]c1=O | -7%
CC1=NOC(=O)/C1=C/c1ccc(-c2ccc(Cl)cc2)o1 | 1.1µM*
COC(=O)c1cc(OC)c(OC)cc1NC(=O)c1c(-c2ccccc2Cl)noc1C | -12%
Nn1c(Nc2ccccc2)nc2ccccc2c1=O | -17%
O=[N+]([O-])c1cccc(/C=N\N2CCN(Cc3ccccc3Cl)CC2)c1 | -6%
Clc1ccc(OCc2nc(-c3ccncc3)no2)c(Br)c1 | 18µM*
CCCC(=O)N1CC(=O)Nc2ccc(F)cc2C1c1ccccc1 (stereo unspecified) | -5%
COc1ccc(/C=N/NC(=O)c2ccoc2C)cc1COc1ccc(Cl)cc1 | -15%
Cc1cc(C)cc(OCC(=O)NNC(=O)c2cc(C)[nH]n2)c1 | -6%
O=C(COC(=O)/C=C/c1cccs1)NC(c1ccccc1)c1ccccc1 | -3%
Cc1cc(NC(=O)CSc2nnc3c(C)cc4ccccc4n23)no1 | ?
Cc1ccc(C)n1CCN1CCN(CC(=O)Nc2cc(C(F)(F)F)ccc2Cl)CC1 | -13%
